# High-throughput results (PubChem BioAssay)
# gsp antagonist = qHTS for Antagonists of gsp, the Etiologic Mutation Responsible for Fibrous Dysplasia/McCune-Albright Syndrome: qHTS; gsp-mutant cells, cAMP HTRF, 30 min; control for the full effect not named in the record; Potency, µM (top dose mostly 76.9 µM), for inactives: at the highest dose activity change, negative = inhibition, hits mostly inhibitors; 340,000 compounds, 0.4% hits; AID 624288, 2012; active = falling curve of any shape with a large fitted effect; inconclusive = falling curve, mostly with a smaller effect; inactive = flat or rising curve; cell line not stated here;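 also: intracellular cAMP measured with PDE inhibitor Ro 20-1724 present during compound exposure; potency is read from the fitted curve at half-maximal effect; % is scaled to controls: 0 for no effect and ±100 for the full control effect; nearly all actives have a fitted effect of over 65% in size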
#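 Measurement of cellular cAMP by homogeneous time-resolved fluorescence following a 30 min compound exposure at 37C. The PDE inhibitor […] was present throughout; the assay buffer was DPBS with 0.05% BSA and 0.005% Tween 20.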
# D2 potentiator = Beta-Arrestin HTS for Positive Allosteric Modulators of the Human D2 Dopamine Receptor: Potentiators. DiscoveRx D2 beta-arrestin cells, luminescence, 90 min; 100% = 57 uM dopamine signal. potentiation, % (no concentration beside the values). 360,000 compounds, 0.23% hits. AID 624464, 2012; active = potentiation of 50% or more; inconclusive = 30% to 50%; inactive = 30% or less;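 also: compound concentration not given in the record; tested on top of an EC20 dose of dopamine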
# Target sequence (P14416 whole entry, looked up): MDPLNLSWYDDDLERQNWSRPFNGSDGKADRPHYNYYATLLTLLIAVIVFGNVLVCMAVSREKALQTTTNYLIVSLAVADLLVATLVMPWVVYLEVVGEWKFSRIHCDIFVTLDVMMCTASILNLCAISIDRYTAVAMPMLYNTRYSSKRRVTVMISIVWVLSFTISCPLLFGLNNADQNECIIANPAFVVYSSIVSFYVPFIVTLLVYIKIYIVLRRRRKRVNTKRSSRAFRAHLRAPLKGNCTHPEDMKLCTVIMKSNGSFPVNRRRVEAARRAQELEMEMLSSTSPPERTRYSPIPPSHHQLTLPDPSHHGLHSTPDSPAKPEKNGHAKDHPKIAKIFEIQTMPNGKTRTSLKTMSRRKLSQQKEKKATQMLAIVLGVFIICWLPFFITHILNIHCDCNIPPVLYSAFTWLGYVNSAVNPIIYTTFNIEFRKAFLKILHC
#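 PathHunter beta-arrestin assay in DiscoveRx D2 cells. Compounds were added with an EC20 of dopamine (50 nM final) for 90 min at 37 deg C. Luminescence was read 1 h after detection reagent, with 57 uM dopamine as the EC100 control.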
# CtBP-E1A inh = qHTS Assay for Inhibitors of the CtBP/E1A Interaction; CtBP / adenovirus E1A interaction (AlphaScreen); AlphaScreen GST-E1A/His-CtBP binding, 1536-well; hits give low values; control for the full effect not named in the record; activity change, % (no concentration beside the values); 340,000 compounds, 0.49% hits; AID 651724, 2012; in the data active means activity change below about -65%; inconclusive means about -30% to -65%; inactive means above about -30%; also: % is scaled to controls: 0 for no effect and ±100 for the full control effect
#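 Protein mix (5X: 125 nM each GST-E1A, His-CtBP) was incubated with pinned compound 2 h at 37 deg C in dark, in 50 mM Tris pH 8.0 buffer with 300 mM NaCl. Glutathione donor and nickel acceptor beads followed; AlphaScreen signal read after 1 h.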
# gsp agonist = qHTS for Agonist of gsp, the Etiologic Mutation Responsible for Fibrous Dysplasia/McCune-Albright Syndrome: qHTS; gsp mutant cells, cAMP HTRF, 30 min; control for the full effect not named in the record; Potency, µM (highest dose often 76.9 µM), inactives show at the highest dose activation (cAMP increase), usual class: activators; 340,000 compounds, 0.13% hits; AID 624287, 2012; active = well fitted activation curve with a large enough effect; inconclusive = small, poorly fitted or top-dose-only effect, or another doubt; inactive = no such curve, though single readings can be large or run the other way; cell line not stated here;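 also: phosphodiesterase inhibitor Ro 20-1724 added with compounds to block cAMP breakdown; potency is read from the fitted curve at half-maximal effect; nearly all actives have a fitted effect of over 60% in size; about a fifth of the inactives were tested at one dose only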
#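 Cells stably selected in G418 were plated at 2000/well, grown 16-24 hr, then given compounds in DMSO with the PDE inhibitor […] (300 uM solution added) for 30 min at 37C; cAMP was read by HTRF.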
# Six1-Eya2 blk = qHTS Assay for Inhibitors of the Six1/Eya2 Interaction. AlphaScreen GST-Six1/His-Eya2 binding, biochemical; hits give low values; control for the full effect not named in the record. activity change, % (test concentration not listed). 360,000 compounds, 0.56% hits. AID 651725, 2012; in the data active = activity change below about -65%; inconclusive = about -30% to -65%; inactive = above about -30%; also: % is scaled to controls: 0 for no effect and ±100 for the full control effect
#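 Six1/Eya2 binding was read as AlphaScreen signal after compounds were pinned into GST-Six1 plus His-tagged Eya2 (5X stock 250/500 nM) in pH 8.0 Tris/NaCl/TCEP buffer, beads added, then incubated 1 h, 37 C, dark.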
# D2 ag = Beta-Arrestin HTS for Positive Allosteric Modulators of the Human D2 Dopamine Receptor: Agonists; DiscoveRx PathHunter D2 beta-arrestin, luminescence, 90 min; 100% = 57 uM dopamine signal; activation, % (concentration not given with the values); 360,000 compounds, 0.084% hits; AID 624465, 2012; in the data active = activation above about 40%; inconclusive = about 15% to 40%; inactive = below about 15%; also: the text of the record calls up to 30% inactive
#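 Agonist mode: compounds alone added to overnight-plated D2 PathHunter cells for 90 min at 37 C, with 57 uM final dopamine (EC100) defining full response. Beta-arrestin recruitment detected by chemiluminescent reagent, read after 1 h at ambient temperature.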
# An asterisk follows results filed as active; ? = inconclusive; . = no result given; [ ] = remark or other dose.
SMILES,gsp antagonist,D2 potentiator,CtBP-E1A inh,gsp agonist,Six1-Eya2 blk,D2 ag
Cc1nnc(SCC(=O)N(CC(C)C)C2CCS(=O)(=O)C2)s1 (centres undefined),10%,-6,-2,-5%,8,1.1
CCc1cccc(C)c1NC(=O)COC(=O)C(NS(=O)(=O)c1ccc(Cl)cc1)C(C)O (centres undefined),13%,-4,-4,-5%,-7,-4.4
CCn1ccnc1CN1CCc2c([nH]c3ccccc23)C1C1CCCCC1 (centres undefined),3%,-4,0,6%[15.4 µM],-1,-1.5
CC(CCc1ccc(O)cc1)NCc1ccc(Br)cc1 (centres undefined),6%,-16,2,-7%[15.4 µM],-3,0.5
O=C(NCC1CCCO1)C(=O)N/N=C\c1ccc2c(c1)OCO2 (centres undefined),9%,8,4,33%,4,-1.8
N=c1sccn1CC(=O)Nc1cccc(Oc2ccccc2)c1,13%,-34,0,8%,-1,-1.1
CCCCN(C(=O)COC(=O)CSc1cc(C)c2ccccc2n1)c1c(N)n(CCC)c(=O)[nH]c1=O,1%,6,11,?,6,-2.0
CCOc1ccccc1NC(=O)c1cccc(NC(=O)c2ccco2)c1,-1%,-2,-11,-6%,-10,1.2
Cc1ccc2nc3c(cc(C(=O)NCCc4ccccc4)c(=N)n3CCN3CCOCC3)c(=O)n2c1,0%,-3,-2,?,5,-6.6
CC(=O)c1ccc(NC(=O)C2CCCO2)cc1 (centres undefined),7%,-4,1,-22%,5,0.6
O=C(Nc1ccccc1Cl)c1cc(C2CCCCN2C(=O)c2ccccc2)on1 (centres undefined),.,-10,1,.,-3,-7.0
Cc1ccc2oc(C(=O)NC3CCS(=O)(=O)C3)c(C)c2c1 (centres undefined),0%,-12,3,?,-7,-2.9
CC(C(=O)OCC(=O)c1ccccc1)N1C(=O)C2C3CCC(C3)C2C1=O (centres undefined),-1%,-1,9,?,3,0.6
Cc1cccc(OCCn2c(=S)[nH]c3ccccc32)c1,-28%,3,-1,4%,-11,-4.8
Cc1ccc(O)c(C(=O)c2cc(C#N)c3nc4ccccc4n3c2)c1,-4%,-1,0,-9%[15.4 µM],-1,-4.2
CSc1ccc(/C=N\NC(=O)COc2ccc(Cl)cc2Br)cc1,1%,-11,1,-40%[inhibitor],-1,-2.3
CCCNC(=O)C1(C)CCN(C(=O)COCc2ccccc2)C1 (centres undefined),.,1,2,.,0,-4.4
CCc1ccc(NC(=O)CSc2nccn(-c3ccc4c(c3)OCCO4)c2=O)cc1,-27%,-19,14,?,2,-2.6
Cc1ccc(CS(=O)(=O)CCC(=O)NCCC(C)C)cc1,2%,-8,4,-27%,0,-2.7
CC(C)Cc1cc(C(=O)N2CCCC(CO)(Cc3ccc(F)cc3)C2)no1 (centres undefined),0%,-37,12,10%,7,-2.6
O=c1cc(-c2ccccc2)n(S(=O)(=O)c2ccccc2)o1,-3%,-9,-3,24%,4,-4.0
CC1=C(C(=O)OC2CCCCC2)C(c2cccs2)n2c(nc3ccccc32)N1 (centres undefined),1%,-12,3,-18%,-7,-8.8
CN(CCc1nc2ccccc2[nH]1)Cc1nc(CC2CC2)no1,10%,0,6,1%,7,-2.8
COc1ccc(S(=O)(=O)NCCOc2ccccc2)cc1C,10%,-6,-19,-15%,4,2.8
CN(C)S(=O)(=O)c1cccc(NC(=O)COc2ccc(C(=O)c3ccccc3)cc2)c1,?,-10,-8,-2%[15.4 µM],-2,-3.8
O=C(O)COCC(=O)Nc1ccc2c(c1)CCC2,10%,-6,0,3%,3,-3.3
O=C(NNc1ccc([N+](=O)[O-])cc1)c1ccccc1F,12%,13,5,-16%[15.4 µM],11,0.6
CCCCCn1c(=O)[nH]c2cc(C(=O)Nc3ccc(OC)cc3)ccc2c1=O,-2%,-12,0,4%[15.4 µM],-20,-3.7
CCCC(=O)Nc1ccc(C(=O)NNC(=O)COc2ccc(Br)c(C)c2)cc1,5%,-18,-4,-13%,7,-2.3
CCCn1nc(C(=O)NNC(=O)c2ccc(OC(F)F)cc2)c2ccccc2c1=O,-8%,-8,0,12%[15.4 µM],-3,2.2
CC(=O)c1c(C)[nH]c(C(=O)OCC(=O)N(C)c2c(N)n(Cc3ccccc3)c(=O)[nH]c2=O)c1C,15%,1,6,0%[15.4 µM],-4,-2.2
Cc1csc(N/N=C/c2ccc(O)c([N+](=O)[O-])c2)n1,-21%,-1,?,-73%[inhibitor],?,6.6
CC(=O)C1=C(O)CCCC1=NCc1nc2ccccc2[nH]1,-6%,-9,-4,-1%[15.4 µM],0,0.5
CC1(c2nnc(-c3ccncc3)o2)CC(c2ccc(Cl)cc2)=NO1 (centres undefined),-6%,-10,-27,14%,5,-1.8
CCCCn1c(N)c(N(CC)C(=O)/C=C/c2ccco2)c(=O)[nH]c1=O,12%,-20,-11,-27%,1,-6.9
CCOc1ccc(OCC)c(NC(=O)C2CCCN(S(=O)(=O)c3cccs3)C2)c1 (centres undefined),-15%,-12,-22,-24%,-14,0.4
CCOC(=O)c1cc(C)sc1NC(=O)C1CCC1,-8%,1,11,7%,12,1.5
Cc1c(C)n(-c2ccccc2)c2ncnc(NCCCN(C)C)c12,14%,-17,-17,-11%,-13,-1.5
O=C(CCCSc1nnnn1-c1cccc2ccccc12)c1ccc(F)cc1,-16%,-6,21,1%,15,-3.5
Cc1cccc(C(=O)Nc2cccc(OCC(=O)O)c2)c1,9%,-5,7,-1%,-2,1.6
N#CCC(=O)Nc1ccc(C(=O)OCC(=O)NC2CCCc3ccccc32)cc1 (centres undefined),6%,-1,9,18%,-8,-1.1
COc1ccc(C2NC(=O)c3ccccc3N2)c(OC)c1OC (centres undefined),.,-2,13,?,0,-4.1
COC(=O)c1cc(COC(=O)c2nc3nc(C)cc(C)n3n2)oc1C,5%,-2,1,30%,6,-1.0
COc1ccc(N(CC(=O)NC2CCCC2)C(=O)Cn2nnc(-c3ccc(C)o3)n2)cc1,-18%,-1,0,14%[15.4 µM],-3,-0.3
N=C1c2ccccc2CN1NC(=O)COc1ccc(Cl)cc1,3%,-15,-8,-14%,8,0.2
O=C(COc1ccc(Cl)cc1Br)N1CCN(c2ccccc2)CC1,10%,-22,1,-8%,3,-1.7
Cc1ccc(NS(=O)(=O)c2ccc(-c3cnc(C4CC4)o3)cc2)cc1,-1%,-3,.,-67%[inhibitor],-6,2.9
CCOc1ccc(C(=O)NCC(=O)OCC(=O)N2C(C)CCCC2C)cc1 (centres undefined),7%,4,-3,-3%,5,0.3
COc1ccc(C=Nc2ccc3[nH]ncc3c2)c(O)c1,-8%,0,1,-18%,6,1.2
COc1cccc(C(=O)NCC2(c3ccccc3)CCCC2)c1OC,-22%,4,.,3%,-2,0.4
COCCn1c(=O)[nH]c(=O)c2c1nc(-c1cc(Br)c3c(c1)OCO3)n2Cc1ccccc1,-23%,5,8,6%[15.4 µM],0,2.2
Cc1ccnn1Cc1cc(C(=O)O)c2ccccc2n1,6%,4,3,26%,-2,7.9
CCn1c(COc2ccc(=O)n(-c3ccccc3)n2)nnc1SCc1cccc(OC)c1,5%,5,-8,?,-7,-3.4
CCOc1cc(/C=C2\CCCc3c2nc2ccccc2c3C(=O)O)ccc1OC,1%,6,-27,?,-17,-2.5
CCOC(=O)c1cc(-c2ccncc2)nc2c1c(C)nn2-c1ccccn1,21%,15,?,?,-27,-1.8
O=C1CC(N2CCSCC2)C(=O)N1c1ccc(Br)cc1 (centres undefined),10%,-3,.,4%,-3,0.6
CC[C@H](C)[C@H](NC(=O)c1ccc(Cl)cc1)C(=O)OCC(=O)c1ccc2c(c1)NC(=O)CO2,9%,-7,4,-1%,0,-3.2
O=C1CSC(=NC2CCCCC2)N1,3%,-5,-9,5%,-4,-1.3
Cc1ccc(Nc2nc(CSc3nnc(-c4ccccc4C)n3C)cs2)cc1,-17%,-1,-19,-1%,-3,0.3
O=C(COC(=O)Cn1nc(-c2ccccc2)oc1=O)Nc1ccc(F)cc1,-7%,65*,6,9%,6,6.7

# Retrieved by compound from the list above:
SMILES,gsp antagonist,D2 potentiator,CtBP-E1A inh,gsp agonist,Six1-Eya2 blk,D2 ag
CCOC(=O)c1cc(-c2ccncc2)nc2c1c(C)nn2-c1ccccn1,21%,15,?,?,-27,-1.8
COc1ccc(S(=O)(=O)NCCOc2ccccc2)cc1C,10%,-6,-19,-15%,4,2.8
CC(C(=O)OCC(=O)c1ccccc1)N1C(=O)C2C3CCC(C3)C2C1=O (centres undefined),-1%,-1,9,?,3,0.6
COc1ccc(C=Nc2ccc3[nH]ncc3c2)c(O)c1,-8%,0,1,-18%,6,1.2
Cc1nnc(SCC(=O)N(CC(C)C)C2CCS(=O)(=O)C2)s1 (centres undefined),10%,-6,-2,-5%,8,1.1

# Single entries from the list:
# Under D2 ag, `O=C(CCCSc1nnnn1-c1cccc2ccccc12)c1ccc(F)cc1` is listed with -3.5
# Under CtBP-E1A inh, `CC1(c2nnc(-c3ccncc3)o2)CC(c2ccc(Cl)cc2)=NO1` (centres undefined) is listed with -27
# Under gsp antagonist, `Cc1cccc(OCCn2c(=S)[nH]c3ccccc32)c1` is listed with -28%

# The list continues:
SMILES,gsp antagonist,D2 potentiator,CtBP-E1A inh,gsp agonist,Six1-Eya2 blk,D2 ag
COc1cccc(CN2CC(C(=O)N3CCCCCCC3)CCC2=O)c1 (centres undefined),-5%,-4,3,8%,0,1.1
O=C(COC(=O)c1ccc(Cl)nc1)Nc1ccc2c(c1)CCC2,-7%,-30,.,-1%,1,-2.6
COc1cccc(NC(=O)CN(C)C(=O)c2c(C)nn(CC(C)C)c2Cl)c1,10%,-1,7,21%,0,-1.5
CCOc1ccccc1N1CCN(C(=O)CN2C(=O)NC3(CCCC3)C2=O)CC1,11%,-29,16,-34%[inhibitor],0,3.9
CC1CCCCC12NC(=O)N(CC(=O)Nc1ccc3[nH]c(=O)[nH]c3c1)C2=O (centres undefined),0%,-16,3,-1%,1,-0.5
Cc1cc(C)c(OCCOCCN2CCCC2)c(C)c1,7%,-4,-8,-1%,0,0.7
Nc1ncnc2c(C3OC(CO)C(O)C3O)scc12 (centres undefined),-19%,4,-2,-34%[inhibitor],0,0.1
O=S(=O)(NCC1CCCO1)c1ccc2c(c1)OCCO2 (centres undefined),4%,1,-4,0%,0,-4.7
O=C(Nc1nnc(-c2ccc(Cl)cc2)o1)Nc1ccccc1F,4%,-4,3,-4%[15.4 µM],6,0.3
Cc1ccc(NC(=O)CSc2nnc(CNC(=O)c3cccs3)o2)c(C)c1,5%,-4,-12,-84%[inhibitor],2,-1.5
CCOc1c(Cl)cc(CNCC(O)c2ccccc2)cc1OC (centres undefined),11%,-6,-18,?,3,-5.2
